# A1 inh = caspase 3/7 activation in MEF A1-2A-BIM cells, primary screen, A1 inhibitor project, cell-based, luminescence, HTS | caspase activation, % (no concentration beside the values) | AID 2462, 2010 | hit rate 0.066% among 330,000 | Caspase-Glo 3/7 luminescence, 3 h; percent of clofoctol response, vehicle zero;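 active means over half of replicate activation scores above 10%, or exactly half above 10 with the replicate mean above 10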;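 further: wells of about 30 µL received 50 nL stock; many hits fall short of the cut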
# MLL AF4-AF9 inh = inhibitors of AF4 peptide binding to AF9, primary screen, biochemical, AlphaScreen, biotin-AF4 peptide, FLAG-AF9, single point; Protein AF-9 (Homo sapiens), P42568; inhibition, % at 10 µM; hit rate 0.47% among 350,000;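 active means every replicate reaching a set inhibition limit, whatever the replicate mean, cut at about 25% in these data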;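 further: 0% = plate neutral control median and 100% = total signal loss; the record names both 10 and 1 µM as test concentration; the first replicate is given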
# Target sequence (P42568 whole entry, looked up): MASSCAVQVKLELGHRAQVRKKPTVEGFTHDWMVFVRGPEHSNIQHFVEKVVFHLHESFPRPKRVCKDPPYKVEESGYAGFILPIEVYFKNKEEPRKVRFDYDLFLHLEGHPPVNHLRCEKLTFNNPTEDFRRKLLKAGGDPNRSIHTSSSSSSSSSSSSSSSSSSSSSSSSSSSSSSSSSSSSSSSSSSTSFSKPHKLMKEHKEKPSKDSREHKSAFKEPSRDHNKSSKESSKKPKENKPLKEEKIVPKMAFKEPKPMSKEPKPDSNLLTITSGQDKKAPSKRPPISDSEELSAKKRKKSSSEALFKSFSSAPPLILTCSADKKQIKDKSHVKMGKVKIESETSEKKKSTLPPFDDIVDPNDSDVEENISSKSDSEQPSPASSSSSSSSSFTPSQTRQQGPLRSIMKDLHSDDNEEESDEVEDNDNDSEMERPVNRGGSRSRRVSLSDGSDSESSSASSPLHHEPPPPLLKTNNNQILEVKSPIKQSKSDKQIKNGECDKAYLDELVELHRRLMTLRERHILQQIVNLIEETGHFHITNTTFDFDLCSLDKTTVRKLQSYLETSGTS
# Ecoli growth = E. coli growth inhibition, primary screen, OD600; Escherichia coli growth, 23 h; stronger effect = lower value; OD600 absorbance (test concentration not listed); hit rate 0.21% among 330,000; AID 1053175, 2014;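 active means OD600 absorbance below the run mean of sample wells minus 3.6 SD, in any replicate, cut at about 0.56 in these data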;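 further: stock transfer was 300 nL into about 60 µL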
# T cruzi repl = inhibitors of intracellular T. cruzi growth, primary screen, luminescence, NIH3T3 host cells; T. cruzi beta-gal in NIH3T3, 90 h; inhibition, % (concentration not given with the values); hit rate 1.4% among 300,000; AID 1885, 2009;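 active means mean inhibition across valid replicates above about 55%, limit read from the data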;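 further: signal also drops with host cell toxicity which is not excluded here; 0% = plate median of DMSO wells and 100% = zero luminescence signal; higher percent means less beta-gal luminescence so fewer parasites; stock transfer was 50 nL into about 50 µL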
# Beta apoptosis = inhibitors of cytokine-induced beta cell apoptosis, primary screen, luminescence; hit rate 0.8% among 300,000; protection from apoptosis, % (concentration not given with the values); INS-1E cytokine-induced death, ATP luminescence, 48 h; percent of positive-control rescue, neutral wells zero;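 active means all replicates at 75% or more, or half of them and the mean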;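 further: 0% = cytokine-treated negative control wells and 100% = positive control rescue; higher means more ATP so stronger rescue from cytokine killing; wells of about 40 µL received 100 nL stock; the first replicate is given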
# UCH37 inh = inhibitors of human UCH37 deubiquitinase, primary screen, biochemical, Ub-AMC cleavage, fluorescence | Ubiquitin carboxyl-terminal hydrolase isozyme L5 (Homo sapiens), Q9Y5K5 | purified proteasome/UCH37 | inhibition, % (test concentration not listed) | hit rate 0.33% among 330,000;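 active means mean of two replicates above 20%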;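 further: 0% = compound-free wells with enzyme and 100% = wells lacking proteasome; stock transfer was 100 nL into about 20 µL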
# Target sequence (Q9Y5K5 whole entry, looked up): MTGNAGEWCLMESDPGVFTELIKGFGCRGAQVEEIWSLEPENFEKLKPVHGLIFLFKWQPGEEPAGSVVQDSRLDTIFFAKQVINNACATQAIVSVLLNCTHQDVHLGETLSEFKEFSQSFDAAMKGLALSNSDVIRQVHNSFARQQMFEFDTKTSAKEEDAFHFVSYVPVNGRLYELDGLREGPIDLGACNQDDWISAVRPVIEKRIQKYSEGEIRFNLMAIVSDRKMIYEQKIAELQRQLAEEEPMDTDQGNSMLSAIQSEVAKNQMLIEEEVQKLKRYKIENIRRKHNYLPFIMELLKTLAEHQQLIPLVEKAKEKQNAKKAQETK
#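 System: Proteasome-associated human UCH37 deubiquitinase; Input: 0.15 nM proteasome in added enzyme buffer; Also added: Ub-AMC substrate from 1 µM stock; Incubation: 30 min compound-proteasome preincubation then 25 min substrate reaction, room temperature; Detection: fluorescence, ex 355 nm, em 460 nm; Read-out: % inhibition of Ub-AMC cleavage fluorescence; Benchmarks: no-proteasome and no-compound wells.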
# FGF22 binding = binders of human FGF22 protein, primary screen, FGF22 synaptogenesis inhibitor project, biophysical, thermal shift, single point. Fibroblast growth factor 22 (Homo sapiens), Q9HCT0. recombinant FGF22 thermal shift, SYPRO orange fluorescence; percent of sucrose octasulfate shift, DMSO zero. calls only at 9.99 µM. hit rate 1.5% among 340,000;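 active means melting point raised past a set limit in the mean and every replicate; three in four hits are not shown here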
# Target sequence (Q9HCT0 whole entry, looked up): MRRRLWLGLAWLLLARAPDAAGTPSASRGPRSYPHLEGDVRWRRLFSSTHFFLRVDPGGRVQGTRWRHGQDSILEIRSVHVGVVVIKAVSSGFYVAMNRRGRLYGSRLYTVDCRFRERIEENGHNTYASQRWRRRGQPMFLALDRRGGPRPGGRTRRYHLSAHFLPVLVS
# Ecoli rRNA inh = reduced GFP signal of wild-type E. coli, primary screen, bacterial rRNA inhibitor project, GFP/RFP fluorescence, OD600, single point; AID 720706, 2013; E. coli WT GFP vs humanized-ribosome RFP mutants, 24 h; stronger effect = lower value; DMSO median 0, no signal -100; hit rate 1.6% among 350,000; GFP signal change (wild-type ribosome), % (no concentration beside the values);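 active means significant combined selectivity score with lowered wild-type GFP, culture density cut under 30%, mutant RFP and density less affected; inactive means any of these conditions unmet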; further: one replicate is shown; some compounds called inactive have numbers as strong as hits
# Ecoli rRNA inh OD600 = further read-out of Ecoli rRNA inh, marked with its call; OD600 change, %; measured here: OD600 growth;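 optical density of the mix in the first replicate; 0 = DMSO median and -100 = no signal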
# Ecoli rRNA inh RFP = second read-out of Ecoli rRNA inh, no call of its own (marks repeat the call); RFP signal change, %; measured here: RFP humanized mutant strains;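 first replicate; 0 = DMSO median and -100 = no signal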
# * marks the source's active call; other numbers are inactive results; i = inactive; x = not tested or not shown. The list is partial; the hit share may differ from the screen's.
# Start of the data: the first 3 records as a preview:
no.	SMILES	A1 inh	MLL AF4-AF9 inh	Ecoli growth	T cruzi repl	Beta apoptosis	UCH37 inh	FGF22 binding	Ecoli rRNA inh	Ecoli rRNA inh OD600	Ecoli rRNA inh RFP
1	Clc1ccc(-c2nc3nc4ccccc4nc3n2Cc2ccco2)cc1	-1.9	x	0.75	x	12	-45	x	x	x	x
2	O=c1[nH]nc(Cc2ccc([N+](=O)[O-])cc2)c2ccccc12	0.9	-3.4	0.66	3	0	2.7	i	1	9	-6.7
3	CC(C(=O)OCC(=O)c1ccccc1)N1C(=O)c2ccccc2C1=O (stereo not given)	1.4	-0.8	0.7	-22	-7	6.2	i	-1	-6	-5.9

# The whole of this part, previewed entries included:
no.	SMILES	A1 inh	MLL AF4-AF9 inh	Ecoli growth	T cruzi repl	Beta apoptosis	UCH37 inh	FGF22 binding	Ecoli rRNA inh	Ecoli rRNA inh OD600	Ecoli rRNA inh RFP
1	Clc1ccc(-c2nc3nc4ccccc4nc3n2Cc2ccco2)cc1	-1.9	x	0.75	x	12	-45	x	x	x	x
2	O=c1[nH]nc(Cc2ccc([N+](=O)[O-])cc2)c2ccccc12	0.9	-3.4	0.66	3	0	2.7	i	1	9	-6.7
3	CC(C(=O)OCC(=O)c1ccccc1)N1C(=O)c2ccccc2C1=O (stereo not given)	1.4	-0.8	0.7	-22	-7	6.2	i	-1	-6	-5.9
4	Cc1[nH]n(-c2ccccc2)c(=O)c1C1(C(F)(F)F)C(=O)N(c2ccc(F)cc2)C2=C1C(=O)CC(C)(C)C2 (stereo not given)	0.3	x	0.7	1	-1	1.2	x	1	8	0.2
5	O=C1c2ccccc2CC1Sc1nnc(-c2ccncc2)o1 (stereo not given)	0.7	x	0.74	1	-1	2.5	x	x	x	x
6	CN(Cc1nc2ccccc2c(=O)[nH]1)C(=O)c1ccc(S(=O)(=O)N(C)C)cc1	-0.9	x	0.67	-6	0	1.9	x	x	x	x
7	CS(=O)(=O)N(CC(=O)NCCc1ccccc1)c1cccc([N+](=O)[O-])c1	0.9	0.8	0.67	-15	-4	-1.2	i	16	4	-1.9
8	COc1ccc(NC(=O)/C(C#N)=C\c2ccc(Br)o2)cc1	-1.0	-0.9	x	1	5	x	i	18	-1	4.3
9	COc1cc2c(=O)n(CCC(=O)NCC3CCCO3)c(=O)n(CC(=O)c3ccc(Cl)cc3)c2cc1OC (stereo not given)	0.3	-0.1	0.7	-8	-1	0.6	x	16	0	-4.7
10	COc1ccc(-n2c(CCC(=O)O)ccc2-c2ccccc2)cc1	-0.1	-1.6	0.67	-6	-12	1.7	i	-25*	-16*	9.7*
11	Cc1cc(C)nc(/N=C(\N)Nc2ccc(-c3ccccc3)cc2)n1	-0.7	12	x	7	40	x	i	-34	-71	2.9
12	CC1=NN(c2ccccc2)C(=O)C1C=Nc1ccc(N(C)C)cc1 (stereo not given)	-0.1	31*	0.62	30	10	4.3	i	2	0	2.0
13	Cc1cc(C(=O)N2CCN(c3cccc(Cl)c3)CC2)c(C)o1	0.8	x	0.73	-24	2	2.5	x	x	x	x
14	C=CCNC(=O)C1CC2Cn3c(nc4cc(C)c(C)cc43)C2N1C (stereo not given)	0.2	0.3	0.68	-11	-20	1.3	i	11	17	2.3
15	COCCOC(=O)C1=C(C)NC(=O)CC1c1cc2c(cc1Br)OCO2 (stereo not given)	0.1	x	0.69	-18	-2	0.5	x	x	x	x
16	CC(C)(C)NC(=S)NC(C)(C)C	x	-1.6	0.66	-4	x	5.2	i	8	18	0.0
17	CC1=Nn2c(nnc2-c2cc(C)[nH]n2)SC1	-0.3	x	0.73	-13	-4	4.2	x	x	x	x
18	CN(C)S(=O)(=O)c1ccc(C(=O)Nc2nc(-c3cccs3)cs2)cc1	0.9	-0.9	0.68	15	10	-62	i	0	6	-0.6
19	Nc1c(C(=O)O)ccc2c1C(=O)c1ccccc1C2=O	-0.1	0.9	0.62	9	11	14	i	-15	-33	12
20	Cc1ccc(C)c(OCCC(=O)Nc2cccc(S(=O)(=O)N3CCCC3)c2)c1	1.5	-2.3	0.67	-7	-9	5.1	i	-15	-13	1.2
21	O=C(CCCOc1ccccc1)N1CCCCC1	-9.3	x	0.69	7	2	0.1	x	x	x	x
22	CC1(C)Oc2ccc3ccc(=O)oc3c2/C(=C/Nc2ccccc2)C1=O	-0.8	x	0.8	11	7	2.3	x	x	x	x
23	Cc1ccccc1NN1C(=O)C=CC1=O	-0.5	x	0.72	-19	x	2.1	x	x	x	x
24	CCNC(=S)Nc1ccc(Cc2ccncc2)cc1	-0.2	-0.4	0.71	-10	-2	4.1	i	6	4	-6.7
25	COc1cc(OC)c(NC(=O)CCCNC(=O)Cn2cnc3sc(C)c(C)c3c2=O)cc1Cl	-0.2	-0.6	0.62	-8	x	5.3	i	5	9	0.2
26	O=C1CCC(=O)N1c1ccc(NCCc2ccccc2F)c([N+](=O)[O-])c1	-0.3	-17	0.68	1	-4	3.0	i	1	5	6.3
27	COc1ccc([N+](=O)[O-])cc1NC(=O)C(C)Sc1nc(C)c(C)c(C)n1 (stereo not given)	-0.3	x	0.69	-13	-4	4.8	x	x	x	x
28	O=C(CSc1nnc(NC(=O)c2ccccc2F)s1)NC1CCCC1	-3.0	-5.1	0.69	-9	1	3.8	i	-3	-4	2.1
29	Cc1ccc2oc(-c3cccc(NC(=O)Cc4cccs4)c3)nc2c1	-4.3	x	0.69	8	2	1.9	x	x	x	x
30	COc1ccc(CN(C)CC2CCCN(CCc3ccccc3C)C2)cc1O (stereo not given)	0.9	6.1	0.68	31	x	1.9	i	16	7	1.9

# 2 neighbouring compounds from above, quoted:
no.	SMILES	A1 inh	MLL AF4-AF9 inh	Ecoli growth	T cruzi repl	Beta apoptosis	UCH37 inh	FGF22 binding	Ecoli rRNA inh	Ecoli rRNA inh OD600	Ecoli rRNA inh RFP
1	Clc1ccc(-c2nc3nc4ccccc4nc3n2Cc2ccco2)cc1	-1.9	x	0.75	x	12	-45	x	x	x	x
2	O=c1[nH]nc(Cc2ccc([N+](=O)[O-])cc2)c2ccccc12	0.9	-3.4	0.66	3	0	2.7	i	1	9	-6.7

# (more compounds)
no.	SMILES	A1 inh	MLL AF4-AF9 inh	Ecoli growth	T cruzi repl	Beta apoptosis	UCH37 inh	FGF22 binding	Ecoli rRNA inh	Ecoli rRNA inh OD600	Ecoli rRNA inh RFP
31	CC(Sc1nnc(Cc2ccc([N+](=O)[O-])cc2)o1)C(N)=O (stereo not given)	0.4	4.0	0.69	26	-3	2.7	i	6	1	2.4
32	Cc1cc(C)cc(OCc2nnc(SCC(=O)N3CCCCC3)o2)c1	0.3	-2.1	0.65	2	-4	5.1	i	-6	0	-2.7
33	CCCCn1c(N)c(N(CC(C)C)C(=O)CN2C(=O)NC3(CCC(C(C)(C)CC)CC3)C2=O)c(=O)[nH]c1=O (stereo not given)	x	-4.9	0.71	x	x	2.8	i	-3	-8	1.1
34	CCN(CC)C(=O)c1cccc(NC(=O)CCc2nc3sc4c(c3c(=O)[nH]2)CCCC4)c1	x	0.6	0.65	x	x	0.8	i	8	0	1.0
35	CCc1cc(C(=O)OC)c(NC(=O)C2CC(=O)NN2Cc2ccccc2)s1 (stereo not given)	0.3	x	0.72	16	19	3.3	x	x	x	x
36	Cc1cc(Br)ccc1SCC(=O)OCC(=O)Nc1ccc2[nH]c(=O)[nH]c2c1	-0.7	-23	0.67	x	-4	1.1	i	-2	8	-1.7
37	O=C(/C=C/c1ccco1)NC(=S)Nc1nc(-c2ccc3ccccc3c2)cs1	0.5	-2.1	x	-2	9	x	i	7	5	1.8
38	COc1cc2c(cc1OC)CN(C(=S)Nc1cccc(Cl)c1C)CC2	1.2	x	0.65	-4	-6	0.7	i	-18	-15	6.3
39	COc1cc(NC(=S)NCCc2ccccc2)c(OC)cc1NC(=O)C(C)C	0.3	1.1	0.71	-4	-1	1.3	i	-4	-3	-0.5
40	C(C#CCN1CCOCC1)#CCN1CCOCC1	x	-9.7	0.63	x	x	0.0	i	8	9	-5.0
41	CC(=O)c1ccc(OCCCC(=O)Nc2nnc(C3CC3)s2)cc1	-0.7	-3.2	0.73	x	-4	0.0	i	5	14	-3.9
42	O=C(Cc1cccc(NC(=O)C2CCCN(C(=O)C3CCCC3)C2)c1)Nc1cccc(C(=O)N2CCOCC2)c1 (stereo not given)	x	-0.6	0.71	x	x	1.7	i	-3	7	3.0
43	CCNC(=S)N(Cc1cc2cccc(C)c2[nH]c1=O)C1CCCC1	0.1	-9.2	0.7	5	1	-0.5	i	9	6	3.9
44	O=C(OCc1cn(-c2ccc(Cl)c(Cl)c2)nn1)c1ccccc1Cl	0.7	x	0.75	-12	2	3.2	x	x	x	x
45	CCOc1ccc(C(=O)CSc2nnc(C3CC3)n2C)cc1	-0.4	x	0.7	2	-6	6.0	x	x	x	x
46	O=C1CSC(c2cccnc2)N1Cc1ccc(Cl)c(Cl)c1 (stereo not given)	0.7	x	0.66	40	-3	6.2	i	-35*	-5.2*	-3.7*
47	CCCn1nnc(NC(=O)c2cccc(Cl)c2)n1	-2.0	x	0.7	-5	-9	4.9	x	x	x	x
48	COC(=O)C1=C(C)N=C2SC(C#N)=C(N)N2C1c1cc(OC)c(OC)c(OC)c1 (stereo not given)	0.4	x	0.7	-7	-6	2.7	x	x	x	x
49	Cc1nnc(NC(=O)CSc2nnc(Cc3ccccc3)n2Cc2ccccc2)s1	0.3	x	0.72	0	-2	1.6	x	x	x	x
50	O=C(Nc1ccccc1Cl)NC1(C(=O)N2CCC(O)CC2)CCCCC1	1.2	-3.5	0.66	-23	-2	0.1	i	0	3	2.7
51	CSCc1cccc(C(=O)OC(C)C(=O)Nc2c(C)n(C)n(-c3ccccc3)c2=O)c1 (stereo not given)	x	-1.1	0.68	x	x	2.1	i	9	13	1.7
52	O=C(CCn1c(=O)oc2ccccc21)N1CCOCC1	1.0	x	0.71	-3	-3	0.7	x	x	x	x
53	CC(=O)N1c2ccc(S(=O)(=O)N3CCC(C(=O)Nc4cccc(C)c4C)CC3)cc2CC1C (stereo not given)	0.8	-2.2	0.72	5	1	2.6	i	-15	-11	0.2
54	O=C(COc1ncnc2ccccc12)N1CCN(S(=O)(=O)c2ccc(Cl)cc2)CC1	-0.4	x	0.73	8	0	1.6	x	x	x	x
55	CCCC(C)NC(=O)COC(=O)c1cc(Br)c(Br)s1 (stereo not given)	-0.3	-1.2	0.62	-17	-4	-1.2	i	12	6	1.7
56	CC(=O)c1sc(N/N=C\c2cccc(Br)c2)nc1C	-1.5	-78	x	44	14	x	i	-7	-3	-2.4

# Compound activity (PubChem)
